Bioassay records: PubChem BioAssay, National Center for Advancing Translational Sciences (NCATS)
IL-2 act: activates IL-2 in a cell-based reporter assay; IL-2 activation reporter assay, cell-based qHTS; stimulated with anti-CD3/CD4/CD28 beads; in transgenic mouse T cells; activation, % (series mostly up to about 46 µM); AID 652025; 360,000 tested, 0.065% active; in the data active = activation above about 50%; inconclusive = mostly about 30% to 49%; also: 0% is about no effect
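Readout: EGFP and DsRed signals by fluorescent plate cytometry. Unstimulated transgenic mouse T cells received compound 60 min before antibody-bead stimulation, then incubated 18 h at 37 degrees C.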
EPAC1 antag: EPAC1 (human) antagonism | O95398 | EPAC1 GEF assay, Rap1b-BODIPY-GDP exchange fluorescence | Potency, µM (series often up to 115 µM), for the others: top-dose activity change, negative = inhibition, usual class: inhibitors | 360,000 tested, 0.14% active | AID 720709;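 also: potency is read from the fitted curve at half-maximal effect; plate controls were vehicle for no effect and positive control for full effect; nearly all actives have a fitted effect of over 50% in size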
EPAC1 ag: EPAC1 (human) agonism; O95398; EPAC1 agonist qHTS, biochemical assay; response scale: 100% = response to 6.5 mM cAMP; Potency, µM (titrated, usually from 154 µM), inactives show at the top dose activation, hits mostly activators; 360,000 tested, 0.073% active; also: potency is read from the fitted curve at half-maximal effect; nearly all actives have a fitted effect of over 60% in size
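Multi-concentration qHTS readout: loss of Rap1B-bound BODIPY-GDP fluorescence driven by 100 nM EPAC1 with excess GDP (50 uM), monitored kinetically at room temperature; agonist response expressed relative to 6.5 mM cAMP.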
WRN inhibitor: blocks human WRN helicase; Q14191; WRN helicase unwinding, fluorescent forked duplex, kinetic; Potency, µM (titrated, usually from 114 µM), for inactives: at the top dose activity change, negative = inhibition, most hits filed as inhibitors; 360,000 tested, 0.46% active; also: potency is read from the fitted curve at half-maximal effect; % is scaled to controls: 0 for no effect and ±100 for the full control effect; nearly all actives have a fitted effect of over 55% in size
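Fluorescence dequenching readout, ex 525 nm/em 598 nm, kinetic mode: forked duplex DNA (100 nM final) with adjacent fluorophore and quencher unwound by WRN (20 nM final) with 2 mM ATP. Compound preincubation 15 min, room temperature.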
FUS yeast rescue: FUS proteinopathy suppression in yeast | S. cerevisiae FUS-expressing, growth rescue, OD600, 24 h | Potency, µM (series often up to 76.6 µM), for the others: top-dose growth rescue (activation), actives largely listed as activators | 390,000 tested, 0.24% active | AID 1347120;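 also: potency is read from the fitted curve at half-maximal effect; plate controls were DMSO vehicle for no effect and reference control for full effect; nearly all actives have a fitted effect of over 55% in size; some results filed as inactive show a strong effect at the top dose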
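Quantitative HTS measuring growth restoration of FUS-toxic yeast. Galactose-induced cells (OD 0.005) were exposed 24hr at 30C to compounds at several concentrations, then absorbance at 600 nm was recorded.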
Abeta rescue: A-beta toxicity reversal in yeast; yeast expressing A-beta42, growth rescue, OD600, 48 h; response scale: 0% DMSO, 100% iron-clioquinol control; 410,000 tested, 0.063% active; Potency, µM (series often up to 46.1 µM), without a hit: at the top dose growth rescue, most hits filed as activators; also: potency is read from the fitted curve at half-maximal effect; nearly all actives have a fitted effect of over 55% in size
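Yeast A-beta toxicity model in growth medium with pinned compounds, 48 h at 30 C; growth read as absorbance at 600 nm. Normalized to FeCl3/clioquinol equimolar mix (positive) and DMSO (negative).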
PLK1 PBD block: blocks phosphopeptide binding to human PLK1 polo-box domain. P53350. Plk1 PBD binding of FITC phosphopeptide, fluorescence polarization. Potency, µM, without a hit: max response, negative = inhibition, actives largely listed as inhibitors. 360,000 tested, 2.8% active. AID 720504; also: potency is read from the fitted curve at half-maximal effect; series mostly up to about 57 µM; % is scaled to controls: 0 for no effect and ±100 for the full control effect; nearly all actives have a fitted effect of over 65% in size
Target sequence (P53350 whole entry, looked up, the tested form may be a part): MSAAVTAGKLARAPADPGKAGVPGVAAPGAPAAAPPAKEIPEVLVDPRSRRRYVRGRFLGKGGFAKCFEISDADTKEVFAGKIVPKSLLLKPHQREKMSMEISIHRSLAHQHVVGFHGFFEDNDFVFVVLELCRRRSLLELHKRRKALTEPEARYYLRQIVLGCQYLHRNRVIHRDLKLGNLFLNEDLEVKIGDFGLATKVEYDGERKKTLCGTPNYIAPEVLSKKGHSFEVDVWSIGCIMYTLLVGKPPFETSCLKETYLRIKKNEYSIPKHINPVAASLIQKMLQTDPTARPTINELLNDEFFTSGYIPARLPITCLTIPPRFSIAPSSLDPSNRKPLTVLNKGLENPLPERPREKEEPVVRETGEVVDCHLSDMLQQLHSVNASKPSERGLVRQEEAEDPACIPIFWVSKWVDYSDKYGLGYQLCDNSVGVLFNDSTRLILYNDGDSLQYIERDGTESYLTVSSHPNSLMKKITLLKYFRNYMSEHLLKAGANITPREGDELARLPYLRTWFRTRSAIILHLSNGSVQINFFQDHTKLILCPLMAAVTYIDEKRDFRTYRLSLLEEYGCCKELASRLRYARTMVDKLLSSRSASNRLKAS
Numbers without * were called inactive; ? = inconclusive; · = not tested or not shown; & = joins results of further samples; [ ] = dose if it differs, or a comment. Unless noted, calls follow the shape of the dose curve; as a rule, active = well fitted curve in the direction sought with a large enough effect; inconclusive = small, poorly fitted or top-dose-only effect, or another doubt; inactive = no such curve, though single readings can be large; an effect the other way counts as inactive or inconclusive. These rows are one share of the data (hit frequency here may not be typical).

Screens by letter: A = IL-2 act; B = EPAC1 antag; C = EPAC1 ag; D = WRN inhibitor; E = FUS yeast rescue; F = Abeta rescue; G = PLK1 PBD block
COCCn1c(=O)[nH]c2cc(C(=O)Nc3cccc(F)c3)ccc2c1=O
  A: 0.0	B: -23%	C: 5%	D: -8%	E: -19%	F: 1%	G: -8%
NC(=O)C1CCN(C(=O)CCc2nc3sc4c(c3c(=O)[nH]2)CCCC4)CC1
  A: -0.1	B: 5%	C: -2%	D: ?	E: ?	F: 9%	G: -28%
Fc1ccc(-n2ncc3c(SCc4cccnc4)ncnc32)cc1
  A: -0.5	B: 3%	C: 4%	D: -13%	E: -2%	F: -10%	G: 1%
COc1cc(C2=NOC(C(=O)Nc3cc(C)on3)C2)cc(OC)c1OC (stereo not drawn)
  A: 0.3	B: -2%	C: -7%	D: 0%	E: -26%	F: 6%	G: -1%
Cc1ccc(C)c(NC(=O)c2ccc(S(=O)(=O)N(C)CC3CCCO3)cc2)c1 (stereo not drawn)
  A: -2.3	B: -11%	C: -4%	D: -27%	E: 64%	F: 8%	G: -9%
CCCc1cc(=O)[nH]c(SCC(=O)Nc2sc3c(c2C(N)=O)CCCC3)n1
  A: 1.0	B: 10%	C: -8%	D: -6%	E: ·	F: -14%	G: -14%
CN(CC1CCCO1)S(=O)(=O)c1ccc(C(=O)NCc2ccccc2)cc1 (stereo not drawn)
  A: -1.5	B: -5%	C: -1%	D: -5%	E: 2%	F: -4%	G: 1%
O=S(=O)(Nc1ccc(-c2nc3cccnc3s2)cc1)c1cc(F)ccc1F
  A: 0.4	B: 4%	C: -3%	D: -14%	E: 7%	F: -10%	G: -13%
O=C(NCCN1CCCCC1)c1ccco1
  A: -0.5	B: 3%	C: -2%	D: 1%	E: -10%	F: -9%	G: 2%
C=CCN1C(=O)c2ccc(C(=O)N3CCC(C(=O)OCC)CC3)cc2C1=O
  A: 0.1	B: 0%	C: -5%	D: -10%	E: -1%	F: -20%	G: -3%
O=C(c1cc(-c2ccco2)nc2ccccc12)N1CCCC(C(F)(F)F)C1 (stereo not drawn)
  A: 0.9	B: -22%	C: -6%	D: ?	E: 23%	F: 9%	G: ?
CC(=O)c1ccc(NC(=O)Cn2cnc(S(=O)(=O)N3CCC(C)CC3)c2)cc1
  A: 0.5	B: -2%	C: -9%	D: -7%	E: 17%	F: 2%	G: 30µM*
COc1cccc(C(=O)COc2ccccc2N2C(=O)C3C4C=CC(C4)C3C2=O)c1 (stereo not drawn)
  A: -0.6	B: 13%	C: 16%	D: 6%	E: -8%	F: 9%	G: -9%
Cc1cccc(/C=C2/S/C(=N/N=C3\CC4CCC3(C)C4(C)C)NC2=O)c1 (stereo not drawn)
  A: -0.4	B: -6%	C: 12%	D: -2%	E: 27%	F: 16%	G: ?
Cc1cnc(NC(=O)CSc2nnc(-c3cccs3)n2C)s1
  A: -1.7	B: -4%	C: 11%	D: 2%	E: 21%	F: -1%	G: -9%
NS(=O)(=O)c1ccc(NC(=O)c2ccc3nccnc3c2)cc1
  A: -0.7	B: 15%	C: 5%	D: 2%	E: 0%	F: 10%	G: -9%
COc1ccc(NC(=O)CCC(=O)Nc2nnc(C(C)C)s2)cc1Cl
  A: 2.1	B: -29%	C: 10%	D: 3%	E: -22%	F: 5%	G: -10%
COc1ccc(NC(=O)COC(=O)c2c3c(nc4ccccc24)CCCC3)cc1Cl
  A: -3.1	B: 7%	C: 15%	D: -13%	E: 4%	F: -25%	G: 2%
CCN(CC)C(=O)CSc1ncnc2c(-c3cccs3)nsc12
  A: -4.3	B: -24%	C: 1%	D: -30%[57.1 µM]	E: 33%	F: -13%	G: ?
Cc1nnc(SCC(=O)Nc2ccc(O)cc2)c2ccccc12
  A: -0.9	B: ?	C: 2%	D: -1%	E: -7%	F: 15%	G: -20%
Cc1ccc(SCC(=O)Nc2ccc(S(N)(=O)=O)cc2)cc1
  A: 0.8	B: -20%	C: -7%	D: 6%	E: 8%	F: -7%	G: ?
COc1ccccc1N1CCN(C2C(=O)Nc3ccccc3-n3nnnc32)CC1 (stereo not drawn)
  A: -0.1	B: 1%	C: 10%	D: -2%	E: 14%	F: -4%	G: -2%
COc1ccc(OC)c2[nH]c(=O)c(CCNC(=O)Cc3cccs3)cc12
  A: -2.4	B: -6%	C: 13%	D: 6%[11.6 µM]	E: -1%	F: 0%	G: -10%
O=C(Nc1ccc2c(c1)OCO2)c1noc2c1CCCC2
  A: -2.7	B: -7%	C: -3%	D: -29%	E: 3%	F: 2%	G: -11%
O=C(Nc1nnc(SCCC2OCCO2)s1)C1CC(=O)N(c2ccc(F)cc2)C1 (stereo not drawn)
  A: -3.1	B: -25%	C: 6%	D: ?	E: ·	F: 2%	G: ?

Gathered by group: those above containing an aryl methoxy group.
Screens by letter: A = IL-2 act; B = EPAC1 antag; C = EPAC1 ag; D = WRN inhibitor; E = FUS yeast rescue; F = Abeta rescue; G = PLK1 PBD block
COc1cc(C2=NOC(C(=O)Nc3cc(C)on3)C2)cc(OC)c1OC (stereo not drawn)
  A: 0.3	B: -2%	C: -7%	D: 0%	E: -26%	F: 6%	G: -1%
COc1cccc(C(=O)COc2ccccc2N2C(=O)C3C4C=CC(C4)C3C2=O)c1 (stereo not drawn)
  A: -0.6	B: 13%	C: 16%	D: 6%	E: -8%	F: 9%	G: -9%
COc1ccc(NC(=O)CCC(=O)Nc2nnc(C(C)C)s2)cc1Cl
  A: 2.1	B: -29%	C: 10%	D: 3%	E: -22%	F: 5%	G: -10%
COc1ccc(NC(=O)COC(=O)c2c3c(nc4ccccc24)CCCC3)cc1Cl
  A: -3.1	B: 7%	C: 15%	D: -13%	E: 4%	F: -25%	G: 2%
COc1ccccc1N1CCN(C2C(=O)Nc3ccccc3-n3nnnc32)CC1 (stereo not drawn)
  A: -0.1	B: 1%	C: 10%	D: -2%	E: 14%	F: -4%	G: -2%
COc1ccc(OC)c2[nH]c(=O)c(CCNC(=O)Cc3cccs3)cc12
  A: -2.4	B: -6%	C: 13%	D: 6%[11.6 µM]	E: -1%	F: 0%	G: -10%

(next part)
Screens by letter: A = IL-2 act; B = EPAC1 antag; C = EPAC1 ag; D = WRN inhibitor; E = FUS yeast rescue; F = Abeta rescue; G = PLK1 PBD block
Cc1cc(C(F)(F)F)n2nc(-c3cccs3)cc2n1
  A: -2.7	B: -5%	C: -5%	D: 1%	E: -5%	F: -6%	G: 8%
CCOC(=O)c1csc(NC(=O)CN2CCN(C)CC2)n1
  A: 1.5	B: -9%	C: -13%	D: -3%	E: -24%	F: -14%	G: 2%
CCCc1cc(=O)[nH]c(SCC(=O)Nc2oc(C)c3c(C)n[nH]c(=O)c23)n1
  A: -3.7	B: -5%	C: 4%	D: -14%	E: 7%	F: 13%	G: -12%
N#Cc1ccc(-c2cccnc2)nc1SCc1ccc(Cl)cc1Cl
  A: -3.9	B: 13%	C: -3%	D: -2%	E: 4%	F: -22%	G: -1%
O=C(O)/C=C\C(=O)Nc1ccc(F)c(F)c1F
  A: -0.3	B: -20%	C: -2%	D: 5%	E: 11%	F: 19%	G: 0%
c1ccc(OCc2nnc3sc(C4COc5ccccc5O4)nn23)cc1 (stereo not drawn)
  A: 1.2	B: ?	C: -4%	D: ?	E: 4%	F: -4%	G: 24µM*
CCOC(=O)N1CCN(CC(=O)Nc2sc(CC)cc2C(=O)c2ccc(OC)cc2)CC1
  A: -4.1	B: -2%	C: 7%	D: -6%	E: 40%	F: 1%	G: 6%
CCCc1cc(=O)[nH]c(SCC(=O)NC(=O)NC2CCCC2)n1
  A: -5.3	B: -5%	C: -17%	D: 0%	E: ·	F: -1%	G: 2%
COc1ccc(CC2(CO)CCN(C/C=C/c3ccccc3OC)CC2)cc1
  A: 3.2	B: -1%	C: 0%	D: -7%	E: 11%	F: -4%	G: -10%
COc1ccc(NC(=O)c2cc(-c3ccco3)nc3ccccc23)cn1
  A: -0.8	B: ?	C: -2%	D: -15%[11.6 µM]	E: 46%	F: 3%	G: ?
CSC1=N/C(=C\c2ccccc2Cl)C(=O)N1N(C)C
  A: 1.0	B: 5%	C: 18%	D: -3%	E: -21%	F: 7%	G: 2%
CC1(C)C(=O)Nc2ccccc2N1C(=O)COc1cc(Cl)ccc1Cl
  A: -0.9	B: -14%	C: 4%	D: -5%	E: 7%	F: 6%	G: -2%
Cn1c(SCC(=O)Nc2ccccc2F)nnc1-c1cccs1
  A: -0.8	B: -14%	C: -7%	D: -3%	E: 5%	F: -18%	G: -2%
O=C(Cn1cnc(S(=O)(=O)N2CCCC2)c1)Nc1ccccc1
  A: -2.8	B: -28%	C: 3%	D: -6%	E: 31%&5%	F: 3%&-12%	G: -18%
CCn1nc(C(=O)NNS(=O)(=O)c2cc(/C=C/C(=O)O)cc(OC)c2OC)c2ccccc2c1=O
  A: -0.2	B: -4%	C: -2%	D: -16%	E: 10%	F: 20%	G: 2%
O=C(COC(=O)c1c2c(nc3ccccc13)CCCC2)c1ccc(Br)s1
  A: -0.2	B: -29%	C: 0%	D: -18%	E: 22%	F: -33%	G: 3%
NC(=O)COC(=O)c1c2c(nc3ccccc13)CCCCC2
  A: -0.2	B: -12%	C: 9%	D: 11%	E: -33%	F: 6%	G: -6%
COc1cc(O)ccc1C(=O)CCc1ccc(O)cc1
  A: -0.3	B: -16%	C: -1%	D: -4%	E: -3%	F: -1%	G: 8%
COCCCn1c(C(=O)NCCC2=CCCCC2)cc2c(=O)n3cccc(C)c3nc21
  A: -1.9	B: -13%	C: 2%	D: 2%	E: 5%	F: -4%	G: -1%
Fc1cccc(Cc2noc(CN3CCOCC3)n2)c1
  A: 0.8	B: 4%	C: 3%	D: 3%	E: -18%	F: 6%	G: -6%
Cn1c(SCC(=O)Nc2ccc(C(N)=O)cc2)nnc1-c1cccs1
  A: -1.0	B: -15%	C: 2%	D: 0%	E: 2%	F: -5%	G: 8%
CCCc1cc(=O)[nH]c(SCC(=O)Nc2nc3ccc(OCC)cc3s2)n1
  A: 0.1	B: -8%	C: 1%	D: -7%[11.6 µM]	E: 12%	F: -19%	G: -17%
Cc1c(C(=O)O)sc2[nH]c(=O)n(Cc3ccccc3)c(=O)c12
  A: 0.6	B: 5%	C: -5%	D: -1%	E: 1%	F: 2%	G: 1%
COc1cc(NC(=O)c2ccccc2)c(OC)cc1NC(=O)Cc1cccs1
  A: 0.5	B: ?	C: 11%	D: ?	E: 21%	F: 22%	G: -28%
CN(C)S(=O)(=O)NCc1ccc2c(c1)OCO2
  A: 1.6	B: -1%	C: 14%	D: 7%	E: -16%	F: -7%	G: -2%
CC1(OC(=O)c2ccco2)C(=O)C=C2C=C(C3CC3)OC=C2C1=O (stereo not drawn)
  A: 0.1	B: -4%	C: -22%	D: ?	E: 10%	F: -21%	G: ?
O=C(CN1CCN(S(=O)(=O)c2ccc(Cl)cc2)CC1)NCc1cccs1
  A: -2.2	B: 2%	C: -1%	D: -3%	E: 2%	F: 8%	G: -5%
